HPGD block: qHTS Assay for Inhibitors of HPGD (15-Hydroxyprostaglandin Dehydrogenase) | Potency, µM, inactives show at the top dose activity change, negative = inhibition, actives largely listed as inhibitors | 150,000 compounds, 4.3% hits | AID 894, 2007 | 15-hydroxyprostaglandin dehydrogenase [NAD(+)] (Homo sapiens), P15428 | purified HPGD, NADH fluorescence kinetic, PGE2 substrate; active = well fitted inhibition curve with a large enough effect (not every such curve was filed as active); inconclusive = small, poorly fitted or top-dose-only effect, or another doubt; inactive = no such curve, though single readings can be large or run the other way;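 further: top concentration of the series not given in the record; plate controls included wells without enzyme; inactives centre near -10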
Target sequence (P15428 whole entry, looked up): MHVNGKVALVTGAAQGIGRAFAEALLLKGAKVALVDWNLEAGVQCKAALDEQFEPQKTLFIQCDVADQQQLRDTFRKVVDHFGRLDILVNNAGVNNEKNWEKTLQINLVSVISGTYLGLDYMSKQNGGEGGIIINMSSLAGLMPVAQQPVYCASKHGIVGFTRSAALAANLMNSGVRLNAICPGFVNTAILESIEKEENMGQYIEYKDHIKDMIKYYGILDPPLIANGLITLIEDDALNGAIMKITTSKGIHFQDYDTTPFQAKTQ
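20 nM HPGD preincubated 15 min at room temperature with compound in 50 mM Tris-HCl pH 8, 0.01% Tween 20. Started with 1 mM NAD+ and 30 uM prostaglandin E2; NADH fluorescence (360/450 nm) read 5 times over 30-s intervals, last minus first.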
An asterisk follows results filed as active; ? = inconclusive; & = joins results of further samples. On the % scale 0 is the no-effect control and ±100 the full control effect; potency means the concentration at half of the fitted maximal effect.

SMILES	HPGD block
Clc1ccccc1CSc1nnc(Cn2cnc3ccccc32)n1-c1ccccc1	-8%
Cc1ccc2nc(/C(C#N)=C\c3ccc(N4CCOCC4)o3)[nH]c2c1	-13%
O=C(NCc1ccco1)c1ccc(Cl)c(S(=O)(=O)N2CCOCC2)c1	-10%
CCCCOc1cc(=O)[nH]c(=O)[nH]1	-6%
CCCCCCCCCCCCCCCCCCOCC(O)CO (stereo unspecified)	-6%
Cc1cc(=O)n2c3ccccc3n(CC(O)CN3CCCCC3)c2c1C#N (stereo unspecified)	-17%
C=CCNC(=S)NNC(=O)c1cc(C)nc2ccccc12	-16%
CC1CCN(C(=O)c2cc(-c3ccccc3O)on2)CC1	14µM*
c1ccc(CSc2ccc(-c3cccs3)nn2)cc1	-5%
CCCCn1c(SCC(=O)NCc2ccco2)nc2c(sc3ccccc32)c1=O	?
CCOC(=O)c1[nH]c2ccc(C)cc2c1NC(=O)CN1CCCCC1	?
COc1cccc(OC)c1OCC(C)CNCC1CCCO1 (stereo unspecified)	-12%
CC(=O)Oc1ccc(C2OC(=O)c3ccccc3N2C(C)=O)cc1 (stereo unspecified)	-6%
O=C(NC1CCCC1)C(c1ccsc1)N(C(=O)Cc1cccs1)c1cccc(F)c1 (stereo unspecified)	1%
Fc1ccc(-c2csc3ncnc(Nc4ccc(N5CCOCC5)cc4)c23)cc1	-1%
CC(=O)/C(=N/Nc1ccccc1)Sc1nnc(C(O)c2ccccc2)n1-c1ccccc1 (stereo unspecified)	-8%
Cc1ccc(OCC(=O)N2CC3(C)CC2CC(C)(C)C3)cc1 (stereo unspecified)	-13%
CSc1ccccc1NC(=O)c1ccccc1N(C)S(C)(=O)=O	-16%
CNC(=O)c1ccc(-c2ccccc2)s1	?
Cn1c(SCC(=O)N2CCc3ccccc32)nc2cccnc21	-12%
CCCOc1cc(C)c(Cl)cc1S(=O)(=O)N(CC)CC	3%
CC(C)Oc1ccc(C2C(C(=O)c3ccco3)=C(O)C(=O)N2Cc2cccnc2)cc1 (stereo unspecified)	-6%
COCc1nnc(NC(=O)CS(=O)(=O)Cc2ccccc2)s1	-21%
O/N=C/c1ccccc1Oc1ccccc1	16µM*
Cc1[nH]c2ccccc2c1C(=O)/C=C\c1ccccc1Cl	-20%
COc1ccc(N2CCN(C3CC(=O)N(Cc4ccc(N5CCCC5=O)cc4)C3=O)CC2)cc1 (stereo unspecified)	-20%
O=C(CC1NCCNC1=O)Nc1ccc2c(c1)OCCO2 (stereo unspecified)	4%
Cc1nc2ccc(C(=O)c3ccccc3)cc2[nH]1	18µM*
C=CCN=C(NC#N)SCc1ccccc1	2%
CCN1C(=O)CC(c2ccco2)Sc2ccccc21 (stereo unspecified)	-18%

Molecules listed so far with a carbonyl joined to an NH by a bond outside any ring:
SMILES	HPGD block
O=C(NCc1ccco1)c1ccc(Cl)c(S(=O)(=O)N2CCOCC2)c1	-10%
C=CCNC(=S)NNC(=O)c1cc(C)nc2ccccc12	-16%
CCCCn1c(SCC(=O)NCc2ccco2)nc2c(sc3ccccc32)c1=O	?
CCOC(=O)c1[nH]c2ccc(C)cc2c1NC(=O)CN1CCCCC1	?
O=C(NC1CCCC1)C(c1ccsc1)N(C(=O)Cc1cccs1)c1cccc(F)c1 (stereo unspecified)	1%
CSc1ccccc1NC(=O)c1ccccc1N(C)S(C)(=O)=O	-16%
CNC(=O)c1ccc(-c2ccccc2)s1	?
COCc1nnc(NC(=O)CS(=O)(=O)Cc2ccccc2)s1	-21%
O=C(CC1NCCNC1=O)Nc1ccc2c(c1)OCCO2 (stereo unspecified)	4%

Continuation:
SMILES	HPGD block
CCn1c(SCC(=O)N2CCN(c3ccccc3)CC2)nnc1-c1c[nH]c2ccccc12	-11%
N#Cc1ccc(-c2ccc(OCC(=O)NCC(=O)Nc3ccc(F)c(F)c3F)cc2)cc1	?
C=CCN1C(=O)C(CC(=O)O)SC1=Nc1c(C)n(C)n(-c2ccccc2)c1=O (stereo unspecified)	-8%
CCn1c(SCC(=O)Nc2ccccc2N2CCOCC2)nnc1-c1ccccc1	-4%
O=c1oc2ccccc2n1CCCCCn1c(=O)oc2ccccc21	-20%
CC(C)Oc1ccccc1/C=N/NC(=O)c1ccc(F)cc1	-26%
COc1ccc(OC)c(-c2nc(C(N)=O)c3[nH]c(=O)n(-c4ccc(F)cc4)c3n2)c1	-15%
O=S(=O)(Nc1ccc(Oc2ncccn2)c(Cl)c1)c1ccc(F)cc1	35µM*
Cc1c2cccc(Sc3ccccc3)c2c2c3c(cccc13)[S+](c1ccccc1)C2 (stereo unspecified)	-8%
CC(C)C(NC(=O)CSc1ccc(Cl)cc1)C(C)C	13µM*
CCOC(=O)c1c(OCC)[nH]c2ccc(O)cc12	-3%
COCCN(Cc1cc2cc3c(cc2nc1Cl)OCO3)C(=O)Nc1ccc(F)cc1	-12%
COc1ccc(NC(=O)CC2C(=O)N(C)C(=S)N2CCc2ccccc2)cc1 (stereo unspecified)	-6%
Cc1ccc(NC(=O)C(OC(=O)c2ccc(NC(N)=O)cc2)c2ccccc2)cc1Cl (stereo unspecified)	-7%
CSc1nc(C)c(CCOCc2ccccc2)c(=O)[nH]1	-11%
NC(=O)N/N=C/c1ccc(N2CCOCC2)s1	-16%
C=C1CC2C3CC[C@@]4(OCOC45COCO5)[C@@]3(C)C(O)CC2[C@@]2(C)CCC(=O)C=C12 (stereo partly specified)	-7%
CCn1c(N)c(C(=O)Nc2ccccc2C(=O)OC)sc1=S	25µM*
Cc1cc(=O)[nH]c(SCC(=O)N2CCCc3ccccc32)n1	-9%
Cc1ccc2c(C)cc[n+](CCCS(=O)(=O)[O-])c2c1	-20%

Exported with the structure last: part of the list above
HPGD block | Compound
-7% | C=C1CC2C3CC[C@@]4(OCOC45COCO5)[C@@]3(C)C(O)CC2[C@@]2(C)CCC(=O)C=C12 (stereo partly specified)
-12% | COCCN(Cc1cc2cc3c(cc2nc1Cl)OCO3)C(=O)Nc1ccc(F)cc1
25µM* | CCn1c(N)c(C(=O)Nc2ccccc2C(=O)OC)sc1=S
-11% | CSc1nc(C)c(CCOCc2ccccc2)c(=O)[nH]1
-16% | NC(=O)N/N=C/c1ccc(N2CCOCC2)s1
-9% | Cc1cc(=O)[nH]c(SCC(=O)N2CCCc3ccccc32)n1
-3% | CCOC(=O)c1c(OCC)[nH]c2ccc(O)cc12

(listing goes on)
SMILES	HPGD block
Cc1cn2c(-c3ccc(Cl)cc3)nnc2s1	-10%
CCOc1cc(NC(=S)Nc2cccc(OC)c2)c(OCC)cc1NC(=O)C1CC1	-7%
COc1ccccc1-c1cc(C(=O)N2CCN(c3ccccc3OC)CC2)no1	-9%
CS(=O)(=O)N(Cc1ccccc1)c1ccc(C(=O)NCCSc2ccccn2)cc1	-6%
Cc1ccc(NC(=O)c2nc[nH]c2C(=O)N2CCCCC2)c(C(=O)c2ccccc2)c1	-1%
COc1ccc(C2C(C(=O)N3CCOCC3)=C(C)NC3=C2C(=O)CC(C)(C)C3)c(OC)c1 (stereo unspecified)	?
O=[N+]([O-])c1cccc(/C=N/Nc2cc(Cl)nc(-c3ccccc3)n2)c1	-13%
Cc1ccc(N(CC(=O)N2CCc3ccccc32)S(=O)(=O)c2cccs2)cc1	-8%
COc1cccc(C2NC(=O)NC(C)=C2C(=O)Nc2cc(OC)ccc2OC)c1 (stereo unspecified)	-10%
COc1ccc(/C=C/C(=O)OCC(=O)NCC2CCCO2)cc1 (stereo unspecified)	-22%
Cc1noc(C)c1CSc1nc2ccccc2c(=O)n1-c1ccccc1	4%
CCN(CC)C(=O)Oc1ccc2c(=O)c(-c3ccc(OC)cc3)c(C)oc2c1	-14%
Cc1ccccc1-c1nsc(SCC(=O)NCc2ccc3c(c2)OCO3)n1	-18%
Cc1c(C(=O)N/N=C/c2ccc(N(C)C)cc2)[nH]c2ccc(Cl)cc12	-18%
CCOC(=O)c1cc(S(=O)(=O)N2CCN(C(=O)OCC)CC2)cn1C	2%
CCOC(=O)c1c(NC(=S)NC)sc2c1CC(C)(C)SC2	?
O=C1CCc2cc(S(=O)(=O)NCCC(=O)N3CCN(c4cccc(Cl)c4)CC3)ccc2N1	-9%
CCCCC(=O)Nc1cccc(C(=O)N/N=C/c2ccc(OC)cc2OC)c1	?
Cc1cccc(OCc2nc(C#N)c(NCCN(C)C)o2)c1	4%
Cc1ccc(SCC(=O)Nc2cc(C)on2)cc1	-1%
Nc1cc(-c2nn[nH]n2)ccc1F	-16%
FC(F)(F)COc1nc(OCC(F)(F)F)nc(N2CCN(c3ccccc3)CC2)n1	-18%
O=c1cc(-c2cccc(O)c2)oc2ccc(O)cc12	7.1µM*
CCC(C)(C)NC(=O)C1CCN(c2nc(C)cc(C)n2)CC1	-26%
Cc1ccccc1C	-7%&-8%
COC(=O)c1ccc(/C=C/C(=O)c2cccc(OC)c2)cc1	-16%
CN(C(=O)c1ccc2c(c1)SC1=NS(=O)(=O)CCN12)C(c1ccccc1)c1ccccc1	3%
Cc1nn(-c2nc(-c3ccco3)cc(C(F)(F)F)n2)c(C)c1Br	-13%
CCNS(=O)(=O)c1ccc(CCC(=O)NC2CCCC2)cc1	-11%
O=C(C1CCCN(S(=O)(=O)c2ccccc2[N+](=O)[O-])C1)N1CCN(c2ccccc2)CC1 (stereo unspecified)	-10%
CCC1(C)Cc2c(sc3nc(SCC(=O)O)[nH]c(=O)c23)CO1 (stereo unspecified)	?
COC(=O)C1=C(Nc2ccc(C)cc2)C=C(C)C(C(=O)OC)C1c1ccc(F)cc1 (stereo unspecified)	-21%
Cn1cccc1C(=O)NC(=O)COC(=O)CNS(=O)(=O)c1ccc(Br)cc1	-5%
CCOc1cc(S(=O)(=O)NC2CCCCC2)ccc1F	-4%
Cc1ccc(S(=O)(=O)N2C=CC(C(F)(F)F)=NCC2)cc1	-17%
COc1cc(-c2nc3cnccn3c2Nc2ccc(C)cc2)ccc1O	?
COc1ccc(C(=O)Nc2ccc3nc(N4CCCCC4)cc(C)c3c2)c(OC)c1	?
CCOC(=O)Cn1c(S(=O)(=O)Cc2cccc(F)c2)nc(-c2ccccc2)c1-c1ccccc1	-15%
CCCNC(=O)c1oc2ccc3c(c2c1C)C(=O)CC(C)(C)O3	?
Cc1ccc(-c2ccc(/C=N/N3C(=O)C4C5C=CC(CC5)C4C3=O)o2)c([N+](=O)[O-])c1 (stereo unspecified)	16µM*
O=C(c1cnn2c(C(F)(F)F)cc(-c3ccccc3)nc12)N1CCOCC1	?
CCc1nc(C)cn1S(=O)(=O)c1ccc(Cl)c(Cl)c1Cl	-13%
O=C(O)C1CCN(C(=O)OCc2ccccc2)CC1	0%
Cc1ccccc1NC(=O)C1CCCN1S(=O)(=O)c1cccc2cccnc12 (stereo unspecified)	-23%
C/C=C1\C2C=C(C)C[C@@]1(N)c1ccc(=O)[nH]c1C2	-5%
COCc1nnc(NS(=O)(=O)c2ccc(NC(C)=O)cc2)s1	-19%
CCCn1nc(C(=O)Nc2ccc3nc(C)sc3c2)c2ccccc2c1=O	-25%
OCCN=C1CCCc2c1[nH]c1ccc(Br)cc21	-18%
COc1ccc(CCNC(=O)c2cc(-c3cc(C)c(C)cc3O)n[nH]2)cc1OC	-4%
COc1ccc(CN(CCN(C)C)c2ncccn2)cc1	-5%

A draw from above in order of molecular weight, low to high:
SMILES	HPGD block
COCc1nnc(NS(=O)(=O)c2ccc(NC(C)=O)cc2)s1	-19%
CCc1nc(C)cn1S(=O)(=O)c1ccc(Cl)c(Cl)c1Cl	-13%
O=C(c1cnn2c(C(F)(F)F)cc(-c3ccccc3)nc12)N1CCOCC1	?
CCCn1nc(C(=O)Nc2ccc3nc(C)sc3c2)c2ccccc2c1=O	-25%

Further results
SMILES	HPGD block
CCCCCCOC(=O)Nc1ccc(S(=O)(=O)Nc2cccc([N+](=O)[O-])c2)cc1	-10%
CCCCCCCC1=Cc2ccccc2C(C(C(C)=O)C(=O)OC)N1C(=O)OC (stereo unspecified)	-3%
CS(=O)(=O)c1nc(-c2cccs2)cc(C(F)(F)F)n1	?
Nc1nnc(SCc2ccccc2)n1-c1ccccc1	-7%
Cc1cccc(-n2c(O)c(C=NCCCN3CCOCC3)c3ccccc3c2=O)c1	-31%
COc1ccc2cc3c(N)c(C(=O)N4CCCC4)sc3nc2c1	?
O=C(CN1CCN(C(=O)c2ccco2)CC1)Nc1cc(C(F)(F)F)ccc1Cl	-9%
N#Cc1nc(-c2ccc(F)cc2)oc1NCc1ccccc1	?
COC(=O)c1cc2n(n1)CCN(Cc1ccccc1Cl)C2=O	4%
COC(=O)c1ccc(-n2nc(C(F)(F)F)c3c2-c2ccoc2CC3)cc1	-12%
Cc1ccc(C23CC4CC(CC(CC(=O)N5CCOCC5)(C4)C2)C3)cc1	-2%
CCCCOC(=O)CCc1nc2ccccc2[nH]1	-5%
CC1CCN(S(=O)(=O)c2cn(CC(=O)N3CCN(C)CC3)c(=O)c3ccccc23)CC1	-10%
c1ccc(CNc2ccc3ccccc3n2)nc1	?
COc1ccc(/C=N/Nc2nc(N3CCCC3)nc(N3CCCC3)n2)cc1O	-27%
CCOC(=O)c1cc(C(=O)Nc2ccc(C)c(F)c2)nn1C	-2%
Cc1cc(Cl)ccc1NC(=S)NCc1cccs1	?
O=C(NC1CCN(Cc2ccccc2)CC1)c1ccc(I)cc1	-7%
COc1cccc(OCc2nnc(SCC(=O)OCc3ccccc3)o2)c1	-28%
COc1ccc(-c2cnn3c(N)c(S(=O)(=O)c4ccccc4)cnc23)cc1	20µM*
O=C(Oc1c(Cl)cc(Cl)c2cccnc12)c1cccc([N+](=O)[O-])c1	-12%
CCCC(O)(CCN1CCOCC1)c1ccc(Br)cc1 (stereo unspecified)	-8%

Source: PubChem BioAssay

This is a subset (hit frequency here may not be typical).
